ID4 SMM: binders of human ID4 protein, primary screen, biochemical, small molecule microarray, single point | calls only | DNA-binding protein inhibitor ID-4 (Homo sapiens), P47928 | hit rate 1.2% among 31,000 | Flag-ID4 binding, fluorescence F/B;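 active = spot signal over background at p below 0.07 in all four prints; compounds were printed on slides so no solution concentration is given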;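 also: a binder raises fluorescence above local background on the spot; about 2 pmol printed per array spot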
Target sequence (P47928 whole entry, looked up): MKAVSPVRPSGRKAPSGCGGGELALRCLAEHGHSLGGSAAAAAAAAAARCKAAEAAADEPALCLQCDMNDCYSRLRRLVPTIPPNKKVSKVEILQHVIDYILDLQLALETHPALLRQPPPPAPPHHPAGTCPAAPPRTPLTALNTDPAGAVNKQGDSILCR
Calls only; i = inactive; + = active, no number. A portion of the library; rates above refer to the full screens.

SMILES	ID4 SMM
CN(C)C(=O)C[C@@H]1CC[C@@H](NC(=O)Nc2cccc(F)c2)[C@H](CO)O1	i
CN(C)CC[C@H](c1ccc(Cl)cc1)c1ccccn1	i
CCCc1oc(C(=O)O)cc1CN1CCOCC1	i
CN(C)CCCN1C(=O)[C@@]2(Cc3ccccc31)c1ccccc1C(=O)N(Cc1ccccc1)[C@H]2c1ccc(CO)cc1	i
Cc1cc(Br)c(NC(=O)CSc2ncn(-c3ccccc3)n2)cc1C	i
Cc1sc2nc(SCC(=O)Nc3ccc4c(c3)OCCO4)n(-c3ccccc3)c(=O)c2c1C	i
COc1cc2c(cc1OC)CN(C(=O)[C@@H]1[C@H]3C(=O)O[C@H](c4ccccc4)[C@H](c4ccccc4)N3[C@H](c3ccc(O)cc3)[C@@]13C(=O)Nc1ccc(C#CCCO)cc13)CC2	i
C/C=C/c1ccc2c(c1)O[C@H](CN(C)Cc1ccc(F)cc1)[C@H](C)CN([C@@H](C)CO)S2(=O)=O	i
CCCC#Cc1cnc2c(c1)C(=O)N([C@H](C)CO)C[C@H](C)[C@H](CN(C)C(=O)C1CC1)O2	i
O=C(CSc1n[nH]c(-c2ccc(Cl)cc2)n1)Nc1cccc(Br)c1	i
O=C(CSc1nnnn1-c1ccccc1)Nc1ccc(Br)c(Cl)c1	i
Cc1sc2ncnc(SCC(=O)c3ccc4ccccc4c3)c2c1C	i
CCCNC(=O)N[C@@H]1C=C[C@@H](CC(=O)N2CCN(C)CC2)O[C@@H]1CO	i
CC1CCc2c(sc3ncn(CC(=O)Nc4c(C(C)C)cccc4C(C)C)c(=O)c23)C1 (centres undefined)	i
Cc1ccc(SCCC(=O)N2CCN(c3ncc(C(F)(F)F)cc3Cl)CC2)cc1	i
CCn1c(SCC(=O)Nc2ccc(Br)c(Cl)c2)nnc1-c1ccccc1F	i
O=C(C[C@@H]1C=C[C@@H](NC(=O)c2ccccc2)[C@@H](CO)O1)Nc1ccc(-c2ccccc2)cc1	i
C[C@H]1CN([C@@H](C)CO)C(=O)c2cc(C3=CCCCC3)cnc2O[C@@H]1CN(C)CC1CCCC1	i
CNC[C@H]1Oc2ncc(-c3ccc(C#N)cc3)cc2C(=O)N([C@@H](C)CO)C[C@H]1C	i
O=C(Nc1ccc2c(c1)[C@H]1C[C@H](CC(=O)N3CCc4ccccc4C3)O[C@H](CO)[C@H]1O2)C1CCC1	i
CCOc1ccc(Br)cc1S(=O)(=O)NC1CC(C)(C)NC(C)(C)C1	i
COCC(=O)Nc1ccc2c(c1)OC[C@@H](C)NC[C@@H](C)[C@H](OC)CN(C)C2=O	i
C[C@H]1CN([C@@H](C)CO)C(=O)c2cc(-c3ccc(F)cc3)cnc2O[C@H]1CN(C)Cc1cccnc1	i
C[C@@H]1CN([C@@H](C)CO)C(=O)c2cc(C#Cc3ccccc3)cnc2O[C@H]1CN(C)Cc1ccccn1	i
CC(C)CC#Cc1cnc2c(c1)C(=O)N([C@@H](C)CO)C[C@@H](C)[C@@H](CN(C)Cc1ccc(F)cc1)O2	i
CCC(=O)N[C@H]1CC[C@H](CC(=O)NCc2cc(F)cc(F)c2)O[C@H]1CO	i
COCC#Cc1cnc2c(c1)C(=O)N([C@H](C)CO)C[C@@H](C)[C@@H](CN(C)Cc1ccc(F)cc1)O2	i
COCC#Cc1ccc2c(c1)O[C@@H](CN(C)C(=O)c1ccccc1F)[C@@H](C)CN([C@H](C)CO)S2(=O)=O	i
O=C(C[C@@H]1C=C[C@H](NC(=O)c2ccncc2)[C@H](CO)O1)NCCc1ccncc1	i
Cc1cccc(Cn2c(NCCCO)nc3c2c(=O)n(C)c(=O)n3C)c1	i
COc1ccc(CNC2C3CC4CC(C3)CC2C4)c(OC)c1C (centres undefined)	i
Cc1ccc(-c2cnc3c(c2)C(=O)N([C@H](C)CO)C[C@@H](C)[C@H](CN(C)CC2CCCCC2)O3)cc1	i
O=C(C[C@@H]1C=C[C@H](NC(=O)CCN2CCCCC2)[C@@H](CO)O1)NCc1ccc(Cl)c(Cl)c1	i
O=C1c2cccc3cccc(c23)C(=O)N1CCCSc1nnc(-c2ccncc2)n1-c1ccccc1	i
COc1ccc2ncc3c(c2c1)-c1cc(Cl)ccc1OC3	i
CN1CCN(C2=Nc3cc(F)ccc3Cc3ccccc32)CC1	i
Cc1nn(S(=O)(=O)N(C)C)c(C)c1CN1C(=O)c2ccccc2C1=O	i
CCC(=O)N1CCN(c2ccc(Cl)cc2NC(=O)COc2ccc(Br)cc2)CC1	i
COc1ccc(C(=O)CC2(O)C(=O)N(Cc3ccccc3)c3ccc(Br)cc32)cc1[N+](=O)[O-] (centres undefined)	i
Cc1nnc(SCC(=O)Nc2cccc(Cl)c2Cl)n1-c1ccc(F)cc1	i
C[C@@H]1CN([C@H](C)CO)C(=O)Cc2cc(NC(=O)Cc3ccccc3)ccc2O[C@H]1CN(C)C	i
COc1ccc2c(c1)OCC(Cc1ccc(OC)c(OC)c1)C2=O (centres undefined)	i
COc1ccccc1NC(=O)CCCC(=O)O	i
COc1cccc(C#Cc2cnc3c(c2)C(=O)N([C@@H](C)CO)C[C@H](C)[C@H](CN(C)CC2CC2)O3)c1	i
O=C(NCc1ccccn1)c1cc(-n2cnnc2)ccc1Cl	i
COc1cccc(-c2cnc3c(c2)C(=O)N([C@@H](C)CO)C[C@@H](C)[C@@H](CN(C)CC2CCOCC2)O3)c1	i
O=C(C[C@H]1CC[C@H](NC(=O)Nc2ccc(F)cc2)[C@H](CO)O1)NCc1cccc(F)c1	i
Cc1cc(S(=O)(=O)Nc2ccc(C(=O)O)cc2)c(C)c(S(=O)(=O)c2ccc(Cl)cc2)c1	i
O=C(O)CNC(=O)c1ccc(S(=O)(=O)N2CCOCC2)cc1	i
CO[C@@H](CN(C)C(=O)c1cc(Cl)cc(Cl)c1)[C@@H](C)CN(C(=O)Nc1ccc(F)cc1)[C@H](C)CO	i
C[C@@H]1CN([C@H](C)CO)C(=O)c2cc(C3=CCCC3)cnc2O[C@H]1CN(C)C(=O)CN(C)C	i
CCCN1C[C@@H](C)[C@H](OC)CN(C)C(=O)c2cc(NC(=O)NC3CCCCC3)ccc2OC[C@H]1C	i
Cc1n[nH]c(C)c1Sc1nccc(-c2cccnc2)n1	i
Cc1c(Cl)cccc1NC(=O)C(C)N(c1ccc(Oc2ccccc2)cc1)S(C)(=O)=O (centres undefined)	i
N#C[C@H]1[C@@H](c2ccc(-c3cccc(F)c3)cc2)[C@@H](CO)N1C(=O)NC1CCCC1	i
CCCCN(C)S(=O)(=O)c1cc(-c2nnc3c4ccccc4c(C)nn23)ccc1OC	i
COc1ccc(CC(=O)Nc2cccc(C(=O)Nc3ccccc3C(=O)O)c2)cc1OC	i
C[C@H]1CN([C@@H](C)CO)S(=O)(=O)c2ccc(C#CCN(C)C)cc2O[C@H]1CN(C)CC1CC1	i
COc1ccccc1NC(=O)c1cc2ccccc2c(C=Nc2ccc(NC(C)=O)cc2)c1O	i
CC(C)CC#Cc1ccc2c(c1)O[C@@H](CN(C)CC1CC1)[C@@H](C)CN([C@H](C)CO)S2(=O)=O	i

A draw from above in order of heavy-atom count, smallest number first.
SMILES	ID4 SMM
N#C[C@H]1[C@@H](c2ccc(-c3cccc(F)c3)cc2)[C@@H](CO)N1C(=O)NC1CCCC1	i
CC(C)CC#Cc1ccc2c(c1)O[C@@H](CN(C)CC1CC1)[C@@H](C)CN([C@H](C)CO)S2(=O)=O	i
COc1ccccc1NC(=O)c1cc2ccccc2c(C=Nc2ccc(NC(C)=O)cc2)c1O	i

Following part:
SMILES	ID4 SMM
CCN(CC)CCNc1nc(-c2ccco2)c2c(c1C#N)CC(C)(C)OC2	i
COc1ccc(OCCCSc2ncccn2)cc1	i
C[C@H](CO)N1C[C@H](C)[C@@H](CN(C)CC2CCCC2)Oc2cc(C3=CCCC3)ccc2S1(=O)=O	i
CO[C@H](CN(C)S(=O)(=O)c1cn(C)cn1)[C@@H](C)CN(C(=O)Nc1ccc(C(F)(F)F)cc1)[C@H](C)CO	i
CC(=O)N(C)C[C@H]1OCc2ccccc2-c2c(n(C)c3ccccc23)C(=O)N([C@@H](C)CO)C[C@@H]1C	i
C[C@@H]1CN([C@@H](C)CO)C(=O)c2cc(Br)cnc2O[C@H]1CN(C)Cc1ccncc1	i
O=C(CN(c1ccc(F)cc1)S(=O)(=O)c1ccc2c(c1)OCCO2)N1CCc2ccccc2C1	i
O=C(C[C@@H]1C[C@H]2c3cc(NC(=O)C4CCC4)ccc3O[C@H]2[C@H](CO)O1)NCc1ccc(-c2ccccc2)cc1	i
Cc1cccc(-n2c(SCC(=O)c3ccccc3)nnc2-c2ccncc2)c1C	i
O=C(CN1C(=O)c2cccc3cccc1c23)Nc1ccccc1C(=O)N1CCCC1	i
O=C(CSc1nnc(C2COc3ccccc3O2)n1-c1ccccc1)c1ccc([N+](=O)[O-])cc1 (centres undefined)	i
CN(C)CCCCNC(=O)[C@@H]1C[C@@H]2C(=O)NCC(=O)N2[C@@H]1c1ccc(O)cc1	i
C[C@H](CO)N1C[C@H](C)[C@H](CN(C)Cc2ccncc2)Oc2ncc(C3=CCCCC3)cc2C1=O	i
C[C@H]1CN([C@@H](C)CO)C(=O)c2cc(-c3cccc(F)c3)cnc2O[C@@H]1CN(C)Cc1ccncc1	i
Cc1nn(CC(=O)Nc2cc(F)ccc2F)c(C)c1[N+](=O)[O-]	i
C(=C\c1ccccc1)/C=N/N1CCN(Cc2cccc3ccccc23)CC1	i
CC(=O)N(C)C[C@H]1OCc2ccccc2-c2ccccc2C(=O)N([C@@H](C)CO)C[C@@H]1C	i
COc1ccc(C(C)C)cc1S(=O)(=O)NCc1ccccn1	i
CS(=O)(=O)Nc1ccc2c(c1)[C@H]1C[C@@H](CC(=O)NCc3cc(F)ccc3F)O[C@H](CO)[C@H]1O2	i
COC(=O)c1c(NC(=S)NCc2ccccn2)sc2c1CCC2	i

Of the compounds above, these contain an NH in an aromatic ring.
SMILES	ID4 SMM
O=C(CSc1n[nH]c(-c2ccc(Cl)cc2)n1)Nc1cccc(Br)c1	i
Cc1n[nH]c(C)c1Sc1nccc(-c2cccnc2)n1	i

Rewritten with each value named: 4 of the compounds above.
COc1ccc(C(C)C)cc1S(=O)(=O)NCc1ccccn1
  ID4 SMM = i

CC1CCc2c(sc3ncn(CC(=O)Nc4c(C(C)C)cccc4C(C)C)c(=O)c23)C1 (centres undefined)
  ID4 SMM = i

CCCN1C[C@@H](C)[C@H](OC)CN(C)C(=O)c2cc(NC(=O)NC3CCCCC3)ccc2OC[C@H]1C
  ID4 SMM = i

CC(=O)N(C)C[C@H]1OCc2ccccc2-c2ccccc2C(=O)N([C@@H](C)CO)C[C@@H]1C
  ID4 SMM = i

(cont.)
SMILES	ID4 SMM
CC(C)CC#Cc1cnc2c(c1)C(=O)N([C@@H](C)CO)C[C@@H](C)[C@H](CN(C)C(=O)c1ccccc1F)O2	i
CS(=O)(=O)N(CC(=O)Nc1ccc(Br)cc1)c1cc(Cl)c(Cl)cc1Cl	i
C/C=C/c1cnc2c(c1)C(=O)N([C@H](C)CO)C[C@@H](C)[C@@H](CN(C)Cc1ccc3c(c1)OCO3)O2	i
O=C(Cc1ccccc1)N[C@H]1CC[C@H](CC(=O)N2CCCCC2)O[C@@H]1CO	i
O=C(CCCOc1ccc(Cl)cc1Cl)Nc1ccccc1[N+](=O)[O-]	i
CCC(=O)N(C)C[C@@H]1Oc2ncc(C#CCC3CCCC3)cc2C(=O)N([C@H](C)CO)C[C@H]1C	i
O=C(N[C@@H]1C=C[C@H](CC(=O)N2CCOCC2)O[C@@H]1CO)c1cccc(F)c1	i
COC(=O)C[C@H]1C[C@H]2c3cc(NC(=O)C4CCC4)ccc3O[C@H]2[C@@H](CO)O1	i
Cn1c(SCC(=O)Nc2ccc(Cl)cc2Cl)nc2ccccc2c1=O	i
Cc1cc(=O)[nH]c(SCCOc2cccc(Cl)c2)n1	i
c1ccc(N2CCN(CCCOc3ccc4c(c3)OCO4)CC2)cc1	i
CC(C)C#Cc1cnc2c(c1)C(=O)N([C@@H](C)CO)C[C@@H](C)[C@@H](CN(C)Cc1ccccn1)O2	i
C/C=C/c1ccc2c(c1)O[C@H](CN(C)C)[C@H](C)CN([C@H](C)CO)S2(=O)=O	i
Cc1cc(C)c(C)c(OCC(=O)NCc2cccnc2)c1	i
Cc1ccc(S(=O)(=O)N(C)CC(=O)Nc2cccc(C#N)c2)cc1	i
COc1cc(C(F)(F)F)cc(C(F)(F)F)c1C(=O)N1CCC(C(=O)c2ccc(Cl)cc2)CC1	i
Cc1cc(C)c(NC(=O)CSc2nnc(-c3ccncc3)n2C)c(C)c1	i
COCCOC(=O)N1C(=O)[C@@]2(c3ccccc31)[C@H](c1ccc(OCCO)cc1)N1[C@H](c3ccccc3)[C@H](c3ccccc3)OC(=O)[C@H]1[C@@H]2C(=O)N1CCN(c2ncccn2)CC1	i
O=C(N[C@@H]1C=C[C@@H](CC(=O)N2CCOCC2)O[C@@H]1CO)c1ccc2c(c1)OCO2	i
CCOC(=O)c1c(NC(=O)COc2ccc(Cl)cc2C)sc2c1CCC2	i
Cc1c(NC(=O)CSc2nnnn2-c2ccc(F)cc2)c(=O)n(-c2ccccc2)n1C	i
CC(C)C#Cc1cnc2c(c1)C(=O)N([C@@H](C)CO)C[C@@H](C)[C@H](CN(C)C(=O)c1ccccc1F)O2	i
COCC(=O)Nc1ccc2c(c1)[C@@H]1C[C@@H](CC(=O)NCc3cccnc3)O[C@@H](CO)[C@@H]1O2	i
COc1cccc(S(=O)(=O)N[C@@H]2CC[C@H](CC(=O)NC3CCC3)O[C@H]2CO)c1	i
C[C@@H]1CN([C@@H](C)CO)S(=O)(=O)c2ccc(C#CC3CC3)cc2O[C@H]1CN(C)C	i
COCCOC(=O)N1C(=O)[C@@]2(c3ccccc31)[C@H](c1ccccc1OCCO)N1[C@H](c3ccccc3)[C@H](c3ccccc3)OC(=O)[C@H]1[C@@H]2C(N)=O	+
O=C(C[C@H]1CC[C@@H](NS(=O)(=O)c2ccccc2)[C@H](CO)O1)NCc1ccncn1	i
O=C(C[C@@H]1C=C[C@@H](NC(=O)C2CCC2)[C@@H](CO)O1)NC1CCCCC1	i

Bioassay records: PubChem BioAssay, Broad Institute
